Compound activity as filed in PubChem BioAssay.
Mtb H37Rv: Confirmatory growth inhibition assay against Mycobacterium tuberculosis H37Rv, potency (AID 1949) | most inactive calls were filed without a number and no value below 0 was filed | actives 1.6% (n = 100,000) | inhibition, % at 10 µg/mL; hits with a dose series show IC50 in µg/mL;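 active means confirmed in a dose series; inconclusive means about 50% or more but not retested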;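 further: bacteria grown 7 days with compound before Alamar blue readout; 0% = untreated bacteria and 100% = reference antibiotic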
* = called active by the depositor; i = inactive; ? = inconclusive. An excerpt; the hit share may differ from the screen's.

SMILES	Mtb H37Rv
O=C1CC(N2CCC(c3nc4ccccc4[nH]3)CC2)C(=O)N1Cc1ccccc1 (centres undefined)	i
O=C(C1CCCN(S(=O)(=O)c2ccccc2[N+](=O)[O-])C1)N1CCCC1 (centres undefined)	i
O=c1c2c(nc3nc(COc4ccccc4)[nH]n13)CCC2	i
Brc1cc2[nH]cnc2c2ccccc12	i
COc1ccc(-c2n[nH]c(=S)n2-c2cccc3ccccc23)cc1	i
COc1cc(OC)cc(C(=O)NC(=S)Nc2ccc(Cl)c(C(=O)O)c2)c1	i
C=CCc1ccc(OCCCN2C(=O)c3ccccc3C2=O)c(OC)c1	i
COc1ccccc1C(=O)Nc1ccc2c(c1)nc1n2CCN(Cc2ccccc2)C1	i
Cc1ccc(OCC(O)CN2CCc3ccccc3C2)c(C)c1 (centres undefined)	13%
Cc1cccc(NC(=O)c2sc3nc(C)cc(C)c3c2N)c1	i
Cc1cccc(N2CCN(C(=S)Nc3ccccc3)CC2)c1C	i
O=C(Cn1cc(C(=O)c2ccco2)c2ccccc21)NCc1cccs1	i
CCC(Oc1ccccc1)C(=O)Nc1ncc(S(=O)(=O)c2ccc([N+](=O)[O-])cc2)s1 (centres undefined)	i
CN(C)CCOCCOc1cccc(Br)c1	i
COc1ccccc1C1CC(c2cccc(NS(C)(=O)=O)c2)=NN1C(C)=O (centres undefined)	2%

Quoted at random: 5 entries already listed, in no set order.
SMILES	Mtb H37Rv
O=C(C1CCCN(S(=O)(=O)c2ccccc2[N+](=O)[O-])C1)N1CCCC1 (centres undefined)	i
Cc1cccc(NC(=O)c2sc3nc(C)cc(C)c3c2N)c1	i
CCC(Oc1ccccc1)C(=O)Nc1ncc(S(=O)(=O)c2ccc([N+](=O)[O-])cc2)s1 (centres undefined)	i
O=C1CC(N2CCC(c3nc4ccccc4[nH]3)CC2)C(=O)N1Cc1ccccc1 (centres undefined)	i
Cc1cccc(N2CCN(C(=S)Nc3ccccc3)CC2)c1C	i

Ordered by molar mass (lowest first): some entries from above
SMILES	Mtb H37Rv
CN(C)CCOCCOc1cccc(Br)c1	i
Cc1ccc(OCC(O)CN2CCc3ccccc3C2)c(C)c1 (centres undefined)	13%
Cc1cccc(N2CCN(C(=S)Nc3ccccc3)CC2)c1C	i
COc1ccccc1C1CC(c2cccc(NS(C)(=O)=O)c2)=NN1C(C)=O (centres undefined)	2%
COc1ccccc1C(=O)Nc1ccc2c(c1)nc1n2CCN(Cc2ccccc2)C1	i

(continued)
SMILES	Mtb H37Rv
Cc1cccc(C(C)(C)C)c1OCCOCCN1CCOCC1	i
COCC(=O)Nc1ccc(S(=O)(=O)NC(C)(C)C)cc1	i
CN1CCN(NC(=O)CSc2nc3c(c(C(F)(F)F)n2)CCc2ccccc2-3)CC1	i
O=C(CSc1nc2ccc([N+](=O)[O-])cc2[nH]1)Nc1ccc2c(c1)OCCO2	i
Cc1ccccc1CN(c1ccc(C(=O)NCc2ccccc2Cl)cc1)S(C)(=O)=O	i
CCCNC(=O)C(=O)NCc1cccc(C)c1	i
CC(NC(=O)c1ccccc1F)c1ccccc1 (centres undefined)	0%
O=C(Cc1ccc(Cl)cc1)Nc1ccccc1C(=O)Nc1ccc(C(=O)O)cc1	0%
CCOc1ccc(NC(=O)CSc2nnc(-c3ccc(Cl)cc3)n2CC(C)C)cc1	i
Cn1c(SCc2nc(-c3cccs3)no2)nnc1-c1c[nH]c2ccccc12	i
CCOC(=O)C1CCN(C(=O)COc2cccc(C)c2)CC1	i
CC(C(N)=S)N1C(=O)c2ccccc2C1=O (centres undefined)	3%
COc1cccc(C(=O)N2CCC(C(=O)Nc3ccc(NC(C)=O)cc3)CC2)c1	i
CC(=O)c1cccc(NC(=O)c2ccc(N(Cc3ccc(C)cc3)S(C)(=O)=O)cc2)c1	i
O=c1c2c(-c3ccccc3)csc2ncn1Cc1ccc(Cl)cc1Cl	8%
COc1cc(C(=O)NCC(C)c2ccccc2)cc(OC)c1OC (centres undefined)	i
CCOc1ccc(NC(=O)Nc2ccc(N(C)C(C)=O)cc2)cc1	i
CC(C)(Oc1ccccc1Cl)C(=O)Nc1ccc(Cc2ccncc2)cc1	?
CCn1c(SCCOc2ccccc2Cl)nnc1-c1ccccc1	0%
Fc1ccccc1Cn1c(-c2ccco2)nc2ccccc21	7%
CC(=O)NS(=O)(=O)c1ccc(NC(=S)NC(=O)c2ccccc2Br)cc1	i
O=S(=O)(c1ccc(-c2ccccc2)cc1)N1CCc2ccccc2C1	5%
COc1ccc(OC)c(Nc2nc(N)nc(CSc3nnc(-c4ccncc4)o3)n2)c1	0%
Cc1ccc(-n2nc3c([n+]2[O-])CCc2nonc2-3)cc1	5%
COc1ccc(-c2n[nH]c(=S)n2-c2ccccc2OC)cc1	i
O=C(CS(=O)(=O)Cc1ccccc1)Nc1ccc(S(=O)(=O)N2CCOCC2)cc1	i
c1ccc(-c2ccccc2OCCCN2CCCC2)cc1	i
Cc1ccccc1CNC(=O)C(=O)Nc1cccc(C(F)(F)F)c1	i
COC(=O)c1cccc(NC(=O)c2ccc(OC)c(OC)c2)c1	i
CC1CCCCC1NC(=O)C(=O)Nc1cccc(F)c1 (centres undefined)	i
COc1ccc(C(C)(C)C)cc1NC(=O)Nc1ccccc1C(F)(F)F	i
CCOc1ccccc1C(=O)Nc1cc(OC)c(OC)c(OC)c1	i
Cn1c(/C=C/N2CCOCC2)c(C(=O)c2ccc(Br)cc2)c(=O)n(C)c1=O	5%
COc1ccc(OCC(=O)Nc2ccccc2-c2nc3ccccc3s2)cc1	i
COc1ccc(NC(=O)CN(C)S(=O)(=O)c2ccc(Br)cc2)cc1Cl	i
N#C/C(=C\c1cn(Cc2ccc(Cl)c(Cl)c2)nc1-c1ccccc1)c1nc2ccccc2[nH]1	3%
Cc1ccc(C(=O)Nc2ccc(N3CCC(C)CC3)cc2)cc1Cl	0%
O=[N+]([O-])c1ccc(NC(=S)N2CCc3ccccc3C2)cc1	1%
COc1ccc(OC)c(NC(=O)c2cc(Br)cc(C)c2OC)c1	2%
CNC(=S)NCc1ccc(Cl)cc1	i
Cc1ccc(S(=O)(=O)N(C)CC(=O)NC2CCCC2)cc1	2%
Cc1cc(C)c2c3c(sc2n1)C1(CCSCC1)C(C#N)=C(N)O3	i
Cn1nc(-c2ccc(C(=O)N3CCN(c4ccccc4)CC3)cc2)c2ccccc2c1=O	1%
CC(NC(=O)C1c2ccccc2Oc2ccccc21)c1ccncc1 (centres undefined)	i
COc1ccc(C(=O)Nc2ccccc2N2CCCCC2)cc1[N+](=O)[O-]	2%

No new results follow: two of the compounds above.
SMILES	Mtb H37Rv
CC(NC(=O)C1c2ccccc2Oc2ccccc21)c1ccncc1 (centres undefined)	i
COc1ccc(C(=O)Nc2ccccc2N2CCCCC2)cc1[N+](=O)[O-]	2%

The list goes on.
SMILES	Mtb H37Rv
Cc1ccc(-n2c(N)c(Br)c(=O)[nH]c2=O)cc1C	i
CCOCC(=O)Nc1nnc(C(C)(C)C)s1	1%
NC(=O)CN1CC(c2ccccc2)CC1=O (centres undefined)	i
Fc1cc(Cl)ccc1NC(=S)NCCN1CCOCC1	i
CC(=O)Nc1cccc(-c2nnc(SCC(=O)Nc3cccc(Cl)c3)n2C)c1	i
COc1ccccc1C(=O)Nc1ccc(-c2nc3ccccc3s2)c(Cl)c1	31%
COc1cccc(S(=O)(=O)Nc2ccc(C(=O)O)cc2)c1	i
CC(C)Cn1c(SCC(=O)Nc2ccc(F)c(Cl)c2)nnc1-c1ccc(Cl)cc1	i
COc1ccc(CC(=O)Nc2ccccc2C(=O)Nc2ccc(C(=O)O)cc2)cc1	i
O=C(O)c1nn2c(c1Br)NC(c1ccccc1)CC2C(F)(F)F (centres undefined)	i
CCOc1ccc(NC(=O)C2CC(=O)OC2c2ccccc2)cc1 (centres undefined)	i
CC(Oc1cccc(Cl)c1)c1nc(-c2ccccn2)no1 (centres undefined)	1%
CC(C)CC(NC(=O)c1ccc(Cl)cc1Cl)c1nnc(SCC(=O)Nc2ccc(F)cc2)n1C (centres undefined)	i
CCOc1ccccc1CN1CCC(C(=O)N2CCN(Cc3ccc4c(c3)OCO4)CC2)CC1	8%
CN1C2=C(C(=O)CC(C)(C)C2)C(c2ccccc2OCc2ccccc2)C2=C1CC(C)(C)CC2=O	i
COc1cc(/C=C\c2[nH]c(=O)[nH]c(=O)c2[N+](=O)[O-])ccc1OCc1ccccc1F	i
CCOC(=O)Nc1sc(C(=O)OC(C)C)c(C)c1C(=O)OC(C)C	i
Cc1cccc(C)c1NC(=O)Cn1c(C(F)(F)F)nc2ccccc21	i
O=C(Nc1ccccc1F)c1ccc(COc2ccc(Cl)cc2)cc1	i
Clc1ccc(OCCn2ccnc2)c(Br)c1	?
CCCOc1ccc(C2NC(=O)NC(C)=C2C(=O)NCc2ccccc2)cc1OCC (centres undefined)	i
Cc1c(Cl)c(C)c(Cl)c(OCC(=O)O)c1Cl	i
CCOc1ccccc1N(CC(=O)Nc1c(C)cc(C)cc1C)S(C)(=O)=O	i
COC(=O)c1ccccc1NC(=O)c1c(NC(=O)CN2CCOCC2)sc2c1CCC2	i
CCCc1nc(Nc2nc3ccccc3o2)nc(C)c1C(=O)OCC	i
CCOC(=O)c1c(NC(=O)CN2CCN(c3ccc(F)cc3)CC2)sc2c1CCCC2	i
COCc1cc(C)nc(SCc2ccc(F)cc2Cl)c1C#N	i
CCC(=O)Nc1ccc(C(=O)Nc2ccccc2OC)cc1	i
CC1=CC(=C2C(=O)NC(=O)NC2=O)C=C(C)N1Cc1ccccc1	i
Oc1c(Cl)cc(Cl)cc1CNc1cccc2cccnc12	3%
Cc1cccc(C(C)(C)C)c1OCCn1ccnc1	8.2µg/mL*
O=[N+]([O-])c1ccc(N2CCN(S(=O)(=O)c3ccc(Cl)c(Cl)c3)CC2)cc1NCC1CCCO1 (centres undefined)	i
CCN(CC)CCN1C(=O)C(O)=C(C(=O)c2cccs2)C1c1ccc(C(C)C)cc1 (centres undefined)	i
c1ccc2c(NCCc3c[nH]c4ccccc34)c3ccccc3nc2c1	1.5µg/mL*
Cc1ccc(F)cc1NC(=O)c1ccc(Cl)s1	i
COCCNC(=O)c1ccccc1NC(=O)CCc1ccccc1	3%
CCOC(=O)c1c(NC(=O)c2ccccc2OC)sc(C(=O)Nc2ccccc2F)c1C	i
O=C(Oc1ccc(C(=S)N2CCOCC2)cc1Br)c1ccccc1F	1%
CN(C1CCCCC1)S(=O)(=O)c1ccc(N)cc1	i
COCCSc1ccccc1C(=O)NCc1ccco1	i
Cc1occc1C(=O)Nc1sc(Cc2ccccc2)cc1C(N)=O	i
O=C(Nc1ccccc1C(F)(F)F)C1CCC1	i
O=C(Nc1ccc(C(=O)Nc2cccc(Cl)c2)cc1)c1ccccc1	i
CCc1cc(Br)ccc1NC(=S)Nc1ccc2c(C)cc(=O)oc2c1	i
CN(CC(=O)Nc1ncn[nH]1)S(=O)(=O)c1ccc2ccccc2c1	i
O=C(N/N=C/c1ccc(O)cc1)c1cc(C23CC4CC(CC(C4)C2)C3)[nH]n1	i
COc1ccc(OC)c(NC(=O)NCCc2cccc(Cl)c2)c1	4%
NC(=O)CN(Cc1ccc(Br)cc1)S(=O)(=O)c1ccc(Cl)cc1	5%
Cc1ccccc1CN(c1ccc(C(=O)NC(C)c2ccccc2)cc1)S(C)(=O)=O (centres undefined)	i
Nc1ccc(-c2nc3ccccc3c(=O)[nH]2)cc1	i
CCCc1cc(=O)oc2cc(OCc3cc(OC)c(OC)c(OC)c3)ccc12	i
CCOC(=O)c1cnc2c(-c3ccccc3OC)c(C)nn2c1C	i
Cc1cccc(C)c1NC(=O)CN(c1cccc(F)c1)S(C)(=O)=O	i
O=C(COc1ccccc1Cl)NC(=S)Nc1ccccc1N1CCCCC1	i
CCc1ccc(NC(=O)Cn2cnc3c(=O)n(C)c(=O)n(C)c32)cc1	8%
CCCc1nnc(NC(=O)c2ccccc2OCC)s1	i
O=C1CC(N2CCN(c3ccc(Cl)c(Cl)c3)CC2)C(=O)N1c1ccccc1 (centres undefined)	i
O=c1c2ccccc2ncn1CCCOc1cccc(Br)c1	i
O=C(O)c1cc(S(=O)(=O)NCc2ccco2)c(Cl)cc1Cl	i
COc1ccc(NC(=O)CC2C(=O)N(c3ccccc3)C(=S)N2Cc2ccccc2Cl)cc1 (centres undefined)	i
Other entries follow.
SMILES	Mtb H37Rv
COC(=O)c1ccc(NC(=O)C(C)Oc2cc(C)cc(C)c2)cc1 (centres undefined)	i
O=C(Nc1ccccc1Sc1ccccc1)c1cccnc1	i
CC(C)COC1C(=O)CCCC1CC(=O)O (centres undefined)	0%
O=C(c1cc2cc(Br)ccc2oc1=O)N1CCN(S(=O)(=O)c2ccccc2)CC1	i
CC(C)(C)c1cc(C(F)(F)F)c(C#N)c(SCC#N)n1	i
CC(NS(=O)(=O)c1cccc(Cl)c1)C(=O)Nc1ccc(Br)cc1F (centres undefined)	3µg/mL*
Cc1ccc(C(=O)O)cc1NC(=S)NC(=O)COc1ccc(C(C)C)cc1	i
CC1CC1C(=O)N1CCN(c2ccccc2F)CC1 (centres undefined)	i
Cc1cc(C(F)F)n2ncc(C(=O)N3CCN(c4ccccn4)CC3)c2n1	i
Cc1ccc(N(CC(=O)Nc2cccnc2)S(C)(=O)=O)c(C)c1	i
N#Cc1ccc(Cn2cc(C(=O)C3CC3)c3ccccc32)cc1	1%
CS(=O)(=O)c1nc(-c2ccc(Br)cc2)cc(-c2ccccc2)c1C#N	i
C=CCN1C(=O)C(O)(C2CCc3ccccc3C2=O)c2cc(Br)ccc21 (centres undefined)	6%
COc1ccc(C2C(C(=O)OC3CCCCC3)=C(C)NC3=C2C(=O)CCC3)c(OC)c1 (centres undefined)	1%
NC(=O)c1ccccc1NC(=O)c1ccc(OCc2ccccc2)cc1	i
COc1ccc(-c2csc(NC(=O)CCCOc3ccc(C)cc3C)n2)cc1	i
Fc1ccc(-c2nnc3sc(-c4cccs4)nn23)cc1	i
CC1CN(Cc2nc3c(c(=O)n(C)c(=O)n3C)n2Cc2ccc(Cl)c(Cl)c2)CC(C)O1 (centres undefined)	i
